High-throughput results from PubChem BioAssay.
rRNA inh HTS: selective bacterial rRNA inhibition in E. coli | GFP signal change (wild-type ribosome), % (test concentration not listed) | 1.6% of 350,000 active | AID 720706 | E. coli WT GFP vs humanized-ribosome RFP mutants, fluorescence, 24 h; active compounds read low; DMSO median 0, no signal -100;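 active = significant combined selectivity score with lowered wild-type GFP, culture density cut under 30%, mutant RFP and density less affected; inactive = any of these conditions unmet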; also: one replicate is shown; some compounds called inactive have numbers as strong as hits
AF4-AF9 inh: MLL-AF4/AF9 protein interaction inhibition | P42568 | AlphaScreen, biotin-AF4 peptide binding to FLAG-AF9 | inhibition, % at 10 µM | 0.47% of 350,000 active;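 active = every replicate reaching a set inhibition limit, whatever the replicate mean, cut at about 25% in these data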;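 also: 0% = plate neutral control median and 100% = total signal loss; the record names both 10 and 1 µM as test concentration; the first replicate is given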
Target sequence (P42568 whole entry, looked up): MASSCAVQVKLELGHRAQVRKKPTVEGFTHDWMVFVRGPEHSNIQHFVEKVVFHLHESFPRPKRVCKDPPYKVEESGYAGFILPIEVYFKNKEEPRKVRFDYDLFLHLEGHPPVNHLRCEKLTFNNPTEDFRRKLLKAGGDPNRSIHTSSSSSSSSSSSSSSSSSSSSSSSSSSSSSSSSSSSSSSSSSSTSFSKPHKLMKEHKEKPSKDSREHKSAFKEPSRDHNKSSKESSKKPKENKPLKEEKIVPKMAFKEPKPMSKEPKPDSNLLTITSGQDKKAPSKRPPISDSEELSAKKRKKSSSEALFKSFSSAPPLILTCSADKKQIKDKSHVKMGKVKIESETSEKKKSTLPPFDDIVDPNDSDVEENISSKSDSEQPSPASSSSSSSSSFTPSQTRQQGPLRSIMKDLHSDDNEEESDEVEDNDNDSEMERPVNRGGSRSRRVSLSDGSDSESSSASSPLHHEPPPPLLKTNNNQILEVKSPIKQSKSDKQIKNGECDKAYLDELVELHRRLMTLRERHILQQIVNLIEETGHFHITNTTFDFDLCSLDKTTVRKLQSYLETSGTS
rRNA inh HTS OD600: recorded beside rRNA inh HTS, whose call it bears; OD600 change, %; measured here: OD600 growth;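 optical density of the mix in the first replicate; 0 = DMSO median and -100 = no signal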
rRNA inh HTS RFP: also measured in rRNA inh HTS; calls as there; RFP signal change, %; measured here: RFP humanized mutant strains;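 first replicate; 0 = DMSO median and -100 = no signal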
Active calls of the source: *. These rows are one share of the data; the hit share may differ from the screen's.

SMILES	rRNA inh HTS	rRNA inh HTS OD600	rRNA inh HTS RFP	AF4-AF9 inh
C[C@@H]1CN([C@H](C)CO)C(=O)c2cc(NS(=O)(=O)c3ccccc3)ccc2O[C@@H](C)CCCCO[C@H]1CN(C)C(=O)c1ccccc1	1.6	5.1	1.6	-3.2
COc1ccc(NC(=O)N(C)C[C@H]2OCCCC[C@H](C)Oc3ccc(NC(=O)Nc4c(C)noc4C)cc3C(=O)N([C@@H](C)CO)C[C@@H]2C)cc1	0.7	2.0	-0.5	2.4
O=C(N[C@@H]1CC[C@@H](CCNC(=O)C2CCC2)O[C@@H]1CO)c1ccncc1	0.5	-4.2	0.0	-4.4
C[C@H](CO)N1C[C@H](C)[C@@H](CN(C)Cc2cncnc2)Oc2ncc(C#CC3CCCCC3)cc2C1=O	3.7	14.4	1.6	4.2
COC(=O)[C@H]1[C@H](CO)[C@H]2Cn3c(ccc(/C=C/c4ccccc4)c3=O)[C@H]2N1C(=O)CC1CC1	-2.6	-9.3	3.0	0.1
Cc1ccc(S(=O)(=O)N(C)C[C@H]2Oc3ccc(NC(=O)CCC(F)(F)F)cc3C(=O)N([C@@H](C)CO)C[C@H]2C)cc1	0.4	-4.3	-1.6	-9.7
COc1ccccc1C(=O)Nc1ccc2c(c1)OC[C@H](C)N(C)C[C@H](C)[C@@H](OC)CN(C)C2=O	2.5	-1.7	-0.6	-0.7
CO[C@H]1CN(C)C(=O)c2cc(NS(=O)(=O)c3ccc(-c4ccccc4)cc3)ccc2OC[C@@H](C)NC[C@@H]1C	2.3	-6.4	5.4	-0.5
O=C(C[C@H]1C[C@H]2c3cc(NC(=O)Nc4ccccc4F)ccc3O[C@H]2[C@H](CO)O1)NC1CCCC1	2.3	5.8	1.2	-16.5
CCCCn1nnnc1C(c1cccs1)N1CCN(C/C=C/c2ccccc2)CC1 (configuration not stated)	-22.2	-40.8	-10.3	1.4
CC(=O)N(C)C[C@H]1[C@@H](c2ccc(C#CC(C)C)cc2)[C@@H](CO)N1C(=O)C1CCC1	-1.8	11.1	0.6	-0.3
CS(=O)(=O)c1ccc(Nc2nc(C(N)Cc3ccc(F)cc3)cs2)cc1 (configuration not stated)	-0.7	-8.2	6.4	2.1
COc1ccc2c3c(n(C)c2c1)[C@@H](CO)NCC31CCN(CC2CC2)CC1	8.2	22.6	-3.2	-3.1
CO[C@@H]1CN(C)C(=O)c2ccc(NS(C)(=O)=O)cc2OC[C@@H](C)N(C(=O)C2CC2)C[C@@H]1C	-0.8	-0.8	0.3	-0.9
O=C([C@H]1[C@H](CO)[C@H]2Cn3c(ccc(C4=CCCCC4)c3=O)[C@@H]1N2)N1CCCCC1	0.7	4.0	-0.3	0.3
O=C(CC1CC1)N1CC2(C1)[C@@H](c1ccccc1)[C@H](CO)N2C(=O)c1cnccn1	3.4	14.6	-0.6	-3.0
CC(=O)OC1(C)C=Cc2ccccc2C1=NS(=O)(=O)c1ccccc1 (configuration not stated)	-6.1	-13.0	4.8	1.5
O=C(C[C@@H]1CC[C@@H](NC(=O)C2CCC2)[C@@H](CO)O1)NCc1ccncc1	5.2	10.6	-1.8	-0.5
C[C@@H]1CCCCO[C@@H](CN(C)Cc2ccccc2)[C@@H](C)CN([C@H](C)CO)C(=O)c2cc(NC(=O)CCCCCC(=O)Nc3ccccc3N)ccc2O1	-0.4	0.3	-2.0	2.7
O=C(c1ccncc1)N1CCCCN2[C@H](C1)[C@@H](c1ccc(-c3ccccc3)cc1)[C@@H]2CO	1.1	11.1	-0.9	-8.5
CCCC(=O)N1CCC2(CC1)CN(C(=O)C1CCOCC1)[C@@H](CO)c1[nH]c3cc(OC)ccc3c12	4.3	10.7	0.2	-0.5
CCOc1cc2[nH]c(=S)n(CCCN3CCN(C)CC3)c(=O)c2cc1OCC	7.7	3.4	-5.8	-5.8
CO[C@H]1CN(C)C(=O)c2ccc(NC(=O)c3cnccn3)cc2OC[C@H](C)N(C(C)=O)C[C@@H]1C	3.0	6.4	0.5	-4.9
C[C@@H]1CCCCO[C@H](CN(C)C(=O)Cc2ccccc2)[C@H](C)CN([C@H](C)CO)C(=O)c2cc(NS(=O)(=O)c3cccs3)ccc2O1	-2.5	-12.1	4.1	0.6
C[C@H](NC(=O)C[C@H]1CC[C@H]2[C@H](COc3ccc(NS(=O)(=O)c4ccc(Cl)cc4)cc3C(=O)N2C)O1)c1ccccc1	1.1	-8.3	1.1	-0.3
COCC#Cc1cnc2c(c1)C(=O)N([C@H](C)CO)C[C@@H](C)[C@@H](CN(C)C(=O)Nc1c(C)noc1C)O2	3.6	-0.6	-2.1	-6.9
C[C@H](CO)N1C[C@H](C)[C@@H](CN(C)CC2CCOCC2)Oc2cc(C#C[C@@H](C)O)ccc2S1(=O)=O	-0.7	3.7	-3.0	-1.3
C[C@H](NC(=O)C[C@H]1CC[C@@H](NC(=O)C2CCOCC2)[C@H](CO)O1)c1ccccc1	2.1	0.6	-1.1	0.9
C[C@@H]1CN([C@@H](C)CO)C(=O)Cc2cc(NC(=O)CCCCCC(=O)Nc3ccccc3N)ccc2O[C@H]1CN(C)S(C)(=O)=O	2.5	4.6	1.1	0.1
COc1ccc(S(=O)(=O)Nc2ccc3c(c2)C(=O)N([C@@H](C)CO)C[C@H](C)[C@@H](CN(C)C(=O)Nc2ccc4c(c2)OCO4)OCCCC[C@@H](C)O3)cc1	0.3	-6.2	-1.3	5.6

(continued)
mol	rRNA inh HTS	rRNA inh HTS OD600	rRNA inh HTS RFP	AF4-AF9 inh
C[C@@H]1CN([C@@H](C)CO)C(=O)c2cc(NC(=O)Nc3ccc4c(c3)OCO4)ccc2O[C@@H]1CN(C)CC1CCCCC1	2.0	-0.8	1.1	13.3
C[C@H](CO)N1C[C@H](C)[C@@H](CN(C)Cc2ccccc2F)Oc2cc(C3=CCCCC3)ccc2S1(=O)=O	0.9	1.3	-0.4	4.4
CCC(=O)N1[C@@H](CO)[C@@H](c2ccccc2)C12CN(Cc1cc(F)ccc1F)C2	-2.2	-0.6	-1.7	-1.4
CCCNC(=O)[C@@H]1[C@@H](CO)[C@@H]2Cn3c(cccc3=O)[C@@H]2N1C(=O)CC1CC1	0.9	3.4	-2.7	-0.2
CCOc1ccc(CCN2C(=S)N([C@@H](CC(C)C)CN3CCCC3CN3C(=S)NC[C@@H]3CC(C)C)C[C@@H]2Cc2ccccc2)cc1 (some centres not stated)	1.8	21.9	3.2	4.4
CC(=O)N(C)C[C@@H]1Oc2cc(C#Cc3cccc(F)c3)ccc2S(=O)(=O)N([C@H](C)CO)C[C@H]1C	-0.1	-30.1	4.0	0.3
CC(=O)Oc1ccccc1Cn1c(C)c(C(=O)NCc2cccc(Cl)c2)sc1=O	-4.1	-23.9	-7.1	2.3
C[C@@H]1CN([C@@H](C)CO)C(=O)Cc2cc(NC(=O)Nc3ccc4c(c3)OCO4)ccc2O[C@@H]1CN(C)Cc1ccc(C(=O)O)cc1	4.9	10.5	3.0	-0.2

Brought forward from above: 6 entries, followed by the next part.
mol	rRNA inh HTS	rRNA inh HTS OD600	rRNA inh HTS RFP	AF4-AF9 inh
CCC(=O)N1[C@@H](CO)[C@@H](c2ccccc2)C12CN(Cc1cc(F)ccc1F)C2	-2.2	-0.6	-1.7	-1.4
CCCNC(=O)[C@@H]1[C@@H](CO)[C@@H]2Cn3c(cccc3=O)[C@@H]2N1C(=O)CC1CC1	0.9	3.4	-2.7	-0.2
CCOc1ccc(CCN2C(=S)N([C@@H](CC(C)C)CN3CCCC3CN3C(=S)NC[C@@H]3CC(C)C)C[C@@H]2Cc2ccccc2)cc1 (some centres not stated)	1.8	21.9	3.2	4.4
CC(=O)N(C)C[C@@H]1Oc2cc(C#Cc3cccc(F)c3)ccc2S(=O)(=O)N([C@H](C)CO)C[C@H]1C	-0.1	-30.1	4.0	0.3
CC(=O)Oc1ccccc1Cn1c(C)c(C(=O)NCc2cccc(Cl)c2)sc1=O	-4.1	-23.9	-7.1	2.3
C[C@@H]1CN([C@@H](C)CO)C(=O)Cc2cc(NC(=O)Nc3ccc4c(c3)OCO4)ccc2O[C@@H]1CN(C)Cc1ccc(C(=O)O)cc1	4.9	10.5	3.0	-0.2
CC(C)(C)OC(=O)N1CCCN(C(c2ccnc3ccccc23)c2nnnn2-c2ccc3c(c2)OCCO3)CC1 (configuration not stated)	1.7	4.8	1.5	36.2*
C[C@H]1CN([C@@H](C)CO)S(=O)(=O)c2ccc(Br)cc2O[C@@H]1CN(C)S(C)(=O)=O	-1.8	-1.8	-4.1	-3.6
C[C@@H]1CN([C@@H](C)CO)C(=O)Cc2cc(NC(=O)C3CC3)ccc2O[C@@H]1CN(C)S(=O)(=O)c1ccc(F)cc1	4.3	2.6	-1.6	-3.1
COc1ccccc1-c1cnc2c(c1)C(=O)N([C@H](C)CO)C[C@@H](C)[C@@H](CN(C)Cc1ccc(C(=O)O)cc1)O2	3.1	17.9	-2.3	-7.0
CC(=O)N1CC2(C1)[C@H](c1ccccc1)[C@@H](CO)N2S(=O)(=O)c1ccccc1	1.8	2.6	-0.5	-3.2
C[C@H]1CN([C@@H](C)CO)S(=O)(=O)c2ccc(-c3ccncc3)cc2O[C@@H]1CN(C)C(=O)Nc1ccc(C(F)(F)F)cc1	-5.0	-8.4	2.0	-0.1
CC(C)NC(=O)N(C)C[C@H]1Oc2ccc(NC(=O)CCN3CCOCC3)cc2CC(=O)N([C@@H](C)CO)C[C@@H]1C	2.1	-1.6	-4.1	-1.1
Cc1noc(C)c1S(=O)(=O)N(C)C[C@H]1Oc2ccc(NS(=O)(=O)c3cn(C)cn3)cc2CC(=O)N([C@@H](C)CO)C[C@H]1C	3.1	9.0	1.3	-1.3
C[C@H](CO)N1C[C@H](C)[C@@H](CN(C)S(=O)(=O)c2ccccc2)Oc2c(NS(C)(=O)=O)cccc2C1=O	-2.4	5.5	2.0	-6.1
COC(=O)C1=C(C)N(Cc2ccccc2C(F)(F)F)C(=NCc2ccc(C(F)(F)F)cc2)NC1c1cccc(C(F)(F)F)c1 (configuration not stated)	1.6	-9.9	3.8	-1.1
OC[C@@H]1CN(Cc2ccncc2)C[C@H](n2cnc3c(NCc4ccncc4)ncnc32)O1	7.2	18.8	-3.4	-3.1
C=C1C(=O)CC2=C1[C@](Cc1ccc(F)cc1)(C(=O)OC)N(C(=O)c1ccccc1)C2	23.5	16.9	5.9	-0.5
Cc1ccc(S(=O)(=O)N(C)C[C@@H]2Oc3ccc(NC(=O)Cc4cn(C)c5ccccc45)cc3C(=O)N([C@@H](C)CO)C[C@H]2C)cc1	-0.7	2.8	0.5	0.8
Cc1noc(C)c1NC(=O)Nc1ccc2c(c1)CC(=O)N([C@@H](C)CO)C[C@@H](C)[C@@H](CN(C)C)O2	6.5	11.6	-0.5	-2.1
COCCCNC(=O)C[C@@H]1C[C@@]2(C(=O)OC)CCCCC=C2N(Cc2ccc(Cl)cc2Cl)C1=O	-27.5	-41.4	-2.6	-1.1
COCC(=O)N1C[C@@H]2[C@H](c3ccccc31)[C@@H](CO)N2C(=O)C1CCCC1	-2.8	2.1	-1.9	0.4
Cc1ccccc1-c1cnc(C(O)c2c(C)cccc2C)[nH]1 (configuration not stated)	-19.1	-36.8	5.1	3.9
O=C(c1cccnc1)N1CC[C@H]2[C@H](CO)Nc3ccc(C#Cc4cccnc4)cc3[C@H]21	3.1	14.2	-7.0	0.7
CO[C@H]1CN(C)C(=O)c2ccc(NC(=O)c3ccccc3F)cc2OC[C@@H](C)NC[C@@H]1C	-0.2	0.2	-0.3	-4.8
O=C1c2[nH]nc(-c3ccccc3)c2C(c2ccc(F)cc2)N1Cc1ccccc1 (configuration not stated)	-29.6	-56.7	25.9	-0.1
O=C(C[C@H]1CC[C@H](NC(=O)C2CCC2)[C@@H](CO)O1)NC1CCCCC1	-12.7	-7.8	-1.6	-0.9
COCC#Cc1cnc2c(c1)C(=O)N([C@@H](C)CO)C[C@@H](C)[C@H](CN(C)Cc1ccc3c(c1)OCO3)O2	6.6	4.6	0.7	0.3
COCC(=O)N(C)C[C@@H]1[C@@H](c2ccc(-c3ccccc3)cc2)[C@H](CO)N1C(C)=O	-2.8	0.7	0.2	-2.8
COc1cc(OC)cc(-c2noc([C@@H]3O[C@H](CO)[C@H](O)[C@H](O)[C@H]3O)n2)c1	11.9	14.2	1.1	2.7
COCC(=O)N1C[C@H](C)[C@@H](OC)CN(C)C(=O)c2cc(NC(=O)C3CCC3)ccc2OC[C@@H]1C	5.9	5.9	2.7	-1.1
COc1cccc(C(NC(C)=O)c2nc(-c3cccc(C#N)c3)cs2)c1 (configuration not stated)	9.3	21.7	6.4	-0.4
CC1([N+](=O)[O-])COC(c2cccc3ccccc23)OC1 (configuration not stated)	-21.9*	-17.3*	0.4*	-1.3
CCCN1[C@@H]2Cn3c(ccc(-c4ccncc4)c3=O)[C@H]1[C@@H](C(=O)N1CCCCC1)[C@@H]2CO	-3.4	3.7	-3.1	-1.3
